Screening results deposited in PubChem by several laboratories.
CSC inhib – blocks cancer stem cells. AID 2717. 300,000 compounds, 1.1% hits. inhibition, % at 7.5 µM. cancer stem cell-like cells viability, luminescence;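 active = mean at 75% or more and at least half the replicates too; inconclusive = mean and replicates disagree; tested in HMLE shEcad cells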;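 also: 0% = median of negative and 100% = median of positive control wells; the first replicate is given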
Rce1 inh – yeast Ras-converting enzyme inhibition. Q03530. yeast membranes, quenched prenylated peptide cleavage fluorescence. calls only. 290,000 compounds, 0.27% hits;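 active = fall in fluorescence gain of 50% or more versus controls, with final raw signal at or below 3038400; inconclusive = same 50% fall but final raw signal above 3038400; inactive = fall in fluorescence gain under 50%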;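 also: plate controls were neutral control wells for no effect and wells lacking membranes for full effect; tested at 10 µM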
eIF4H FP inh – inhibitors of RNA binding by human eIF4H. eIF4H fluorescence polarization binding assay. inhibition, % at 35 µM. Q15056. 290,000 compounds, 0.94% hits;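 active = 50% or more with normal probe brightness, or confirmed in later tests; inconclusive = above 50% with abnormal brightness, or retests that disagree; inactive = below 50% or failed in later tests; about a fifth of its hits are not listed in these tables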;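 also: calls also rest on retests at 20 µM and on dose response follow-up; 0% = protein and probe with vehicle and 100% = probe without protein; strong numbers were not always called active; many hits fall short of the cut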
PABP FP inh – PABP-poly(A) binding inhibition; inhibition, % at 35 µM; 290,000 compounds, 1% hits; AID 2014; P11940; PABP-poly(A) RNA binding, fluorescence polarization;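 active = 50% or more with normal probe brightness, or confirmed in later tests; inconclusive = above 50% with abnormal brightness, or retests that disagree; inactive = below 50% or failed in later tests; about a fifth of its hits are not listed in these tables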;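 also: calls also rest on retests at 20 µM and on dose response follow-up; controls were probe without protein and protein plus probe with vehicle; some compounds called inactive have numbers as strong as hits; many hits fall short of the cut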
Target sequence (P11940 whole entry, looked up): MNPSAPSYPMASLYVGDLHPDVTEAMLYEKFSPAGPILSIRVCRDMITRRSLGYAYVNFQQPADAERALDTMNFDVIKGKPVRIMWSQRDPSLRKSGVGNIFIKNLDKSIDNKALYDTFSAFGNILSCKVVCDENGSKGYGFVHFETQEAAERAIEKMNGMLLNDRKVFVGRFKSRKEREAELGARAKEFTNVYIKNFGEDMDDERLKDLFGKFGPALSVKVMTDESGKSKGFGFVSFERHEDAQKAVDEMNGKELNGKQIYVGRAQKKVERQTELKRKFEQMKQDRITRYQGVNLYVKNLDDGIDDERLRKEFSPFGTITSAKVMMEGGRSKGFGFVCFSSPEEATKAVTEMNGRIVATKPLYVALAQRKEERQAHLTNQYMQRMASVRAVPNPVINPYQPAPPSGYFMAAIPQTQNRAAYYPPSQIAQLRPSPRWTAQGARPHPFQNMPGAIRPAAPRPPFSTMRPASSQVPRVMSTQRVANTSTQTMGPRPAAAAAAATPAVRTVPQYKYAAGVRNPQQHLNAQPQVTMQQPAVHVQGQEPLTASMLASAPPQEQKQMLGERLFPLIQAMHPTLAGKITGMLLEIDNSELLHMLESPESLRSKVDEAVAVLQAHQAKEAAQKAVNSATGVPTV
MT1-MMP act inh – inhibitors of human MT1-MMP activation | P50281 | 360,000 compounds, 0.061% hits | GFP/RFP ratio change, % at 20 µM | HT1080 RFP-PRO-GFP cells, GFP/RFP ratio fluorescence, overnight; percent of plate control window, DMSO zero | AID 651647;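 active = GFP/RFP ratio change of at least 30% with cell ATP level not reduced by more than half and red fluorescence within 50% of control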; also: strong numbers were not always called active
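Read-out: GFP/RFP fluorescence ratio; Test system: RFP-PRO-GFP reporter HT1080 cells; Compound dosing: single-point 20 µM compound, 1% DMSO; Times: overnight compound exposure at 37 °C.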
UUG fidelity – alters start codon recognition fidelity in yeast. S. cerevisiae UUG-firefly luciferase reporter, luminescence/redox ratio. activity score, % at 18.7 µM. 350,000 compounds, 0.13% hits;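 active = replicate mean at a twofold rise or more, about +100% in these data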;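 also: firefly luciferase made from a UUG start codon reports start codon fidelity; reporter light over untreated wells divided by growth signal over untreated wells; some hits fall short of that in this replicate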
HIV Env fusion – inhibitors of HIV Env-mediated cell fusion | 360,000 compounds, 1.1% hits | inhibition, % at 12.3 µM | HeLa-JRFL Env/CEM21 cell fusion, luciferase;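 active = mean replicate inhibition score of at least 50 and every replicate individually at or above 50; inconclusive = only one of the two criteria met; inactive = mean below 50 and not all replicates reaching 50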;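 also: 0% = plate neutral controls and 100% = maraviroc near 300 nM; one replicate is shown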
eIF4H FP inh retest – recorded beside eIF4H FP inh, whose call it bears; inhibition, %; compound at 20 µM; confirmation average;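 mean of two retest wells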
PABP FP inh retest – further read-out of PABP FP inh, marked with its call; inhibition, %; compound at 20 µM; confirmation repeats;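 mean of two retest wells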
MT1-MMP act inh RFP – also measured in MT1-MMP act inh; calls as there; RFP signal change, %; measured here: RFP expression control read;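 0 = vehicle wells; hits needed this value within 50% of zero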
Active calls of the source: *; i = inactive; ? = inconclusive; . = not tested or not shown; + = active, no number.

SMILES | CSC inhib | Rce1 inh | eIF4H FP inh | PABP FP inh | MT1-MMP act inh | MT1-MMP act inh RFP | UUG fidelity | HIV Env fusion | others
COc1ccc(CCC(C)N2CCC(Oc3ccc(C(=O)N4CCCC4)cc3)CC2)cc1 (stereo unspecified) | 11 | i | 18 | 6 | -3 | -2 | -1 | .
O=C(CSc1ccccc1F)Nc1ccc(N2CCOCC2)cc1 | . | . | . | . | 1 | 0 | -14 | -16
O=C(O)Cn1c(=O)c2c(c3ccccc31)CCC2 | -1 | i | -3 | 9 | 1 | 0 | -15 | 3
COc1ccc2oc(C(=O)OCC(=O)N(C)C3CCS(=O)(=O)C3)c(C)c2c1 (stereo unspecified) | -3 | i | . | . | -2 | 2 | -24 | -9
Cc1cc(N2CCN(C(=O)c3ccco3)CC2)n2nc(-c3cccc(F)c3)cc2n1 | . | i | -13 | -8 | 2 | -7 | -13 | -5
CCCNC(=O)N1CCC(Cc2ccccc2)CC1 | 4 | i | -10 | -5 | 4 | 6 | -11 | -13
CCOc1ccccc1NC(=O)COC(=O)COc1cccc2c1OC(C)(C)C2 | . | . | . | . | 1 | 3 | -1 | -4
Cc1nn(C)c(C)c1Nc1ccc(N2C(=O)C3CC=CCC3C2=O)cc1[N+](=O)[O-] (stereo unspecified) | 6 | i | 3 | -2 | 1 | -19 | -23 | 6
O=C(/C=C/c1ccccc1F)c1cccc([N+](=O)[O-])c1 | 5 | i | -1 | 3 | -4 | -1 | . | -56
COc1ccc(C(=O)NCC(C)(c2ccccc2)c2ccccc2)cc1S(=O)(=O)N1CCOCC1 | . | . | . | . | 2 | -4 | 3 | 5
Cc1ccc2cc(CN(CC3CCCO3)S(=O)(=O)c3ccccc3)c3nnnn3c2c1 (stereo unspecified) | 3 | i | 4 | 8 | 12 | -3 | 10 | 4
Cc1cc(C)nc(NS(=O)(=O)c2ccc(N3Cc4ccccc4C3=O)cc2)n1 | 5 | i | 4 | -13 | -1 | -2 | . | -9
CC1CCN(CC(O)COc2ccc(F)cc2)CC1 (stereo unspecified) | 5 | i | 5 | 5 | 1 | 7 | 1 | 11
Cc1cc(C)nc(N2CCC(C(=O)NCCc3ccc(F)cc3)CC2)n1 | 3 | i | -6 | 6 | 11 | 5 | -15 | -13
CCC1CCCCN1C(=O)CSc1nnc(-c2ccc(Cl)s2)o1 (stereo unspecified) | -1 | i | -4 | 1 | -1 | -3 | -12 | .
CC(C)(C)OC(=O)N(Cc1ccccc1)Cc1ccccc1OCc1cccc(NC(=O)C2CCC2)c1 | . | . | . | . | -10 | -17 | -12 | 15
CS(=O)(=O)N1CCC(C(=O)N2CCN(c3ccccc3)CC2)CC1 | -11 | i | -9 | 3 | 1 | 1 | . | 17
COCCCNC(=O)c1cc(S(=O)(=O)NCCCN2CCCC2=O)ccc1Cl | -9 | . | . | . | 2 | 0 | -13 | 1
O=S(=O)(Nc1ccc(F)cc1)c1ccc(S(=O)(=O)N2CCOCC2)cc1 | -7 | . | . | . | -1 | 0 | 15 | -7
O=C(CC1SC(=Nc2ccc(OC(F)F)cc2)N(CCN2CCOCC2)C1=O)Nc1ccc(F)cc1F (stereo unspecified) | -8 | i | -7 | 5 | -3 | -9 | 0 | -9

Structural class: the entries above containing two or more sulfur atoms.
SMILES | CSC inhib | Rce1 inh | eIF4H FP inh | PABP FP inh | MT1-MMP act inh | MT1-MMP act inh RFP | UUG fidelity | HIV Env fusion | others
CCC1CCCCN1C(=O)CSc1nnc(-c2ccc(Cl)s2)o1 (stereo unspecified) | -1 | i | -4 | 1 | -1 | -3 | -12 | .
O=S(=O)(Nc1ccc(F)cc1)c1ccc(S(=O)(=O)N2CCOCC2)cc1 | -7 | . | . | . | -1 | 0 | 15 | -7

Later entries:
SMILES | CSC inhib | Rce1 inh | eIF4H FP inh | PABP FP inh | MT1-MMP act inh | MT1-MMP act inh RFP | UUG fidelity | HIV Env fusion | others
CCn1cc(C(=O)NCc2ccco2)c(=O)c2cc(S(=O)(=O)N3CCC(C)CC3)ccc21 | 5 | i | 8 | 12 | 1 | -9 | 1 | 16
COc1ccc(CNC(=O)COC(=O)c2c[nH]c(=O)[nH]c2=O)cc1OC | 11 | i | -5 | 0 | 4 | 2 | -14 | .
O=C(NCc1ccccn1)C1CCN(S(=O)(=O)c2ccccc2)CC1 | -13 | i | 5 | 7 | 5 | 7 | . | .
C[C@@H]1CC=C[C@H]2[C@H]1C(=O)N(Cc1ccccc1)[C@H]2c1ccc(F)c(/C=C/c2ccccc2)c1 | 32 | i | -7 | -12 | -7 | -14 | -13 | 44
CC1CCc2c(sc(NC(=O)CCC(=O)O)c2C(=O)NC2CC2)C1 (stereo unspecified) | -4 | i | -8 | 9 | 1 | 1 | -21 | -8
O=C(Nc1nc(-c2ccccc2)nc2ccccc12)c1ccc(F)cc1 | . | . | 22 | -4 | -6 | -6 | . | -43
COc1ccc(CCC(=O)N2CCN(S(=O)(=O)c3ccc(OC)cc3)CC2)cc1 | 6 | . | . | . | -3 | -1 | 0 | -11
O=C(Nc1ccccc1C(=O)O)c1ccc2c(c1)C(=O)N(c1cccc([N+](=O)[O-])c1)C2=O | 10 | i | 3 | 8 | -1 | 1 | -16 | -1
Cc1ccc(CNC(=O)c2ccc(N3CCC4(CC3)CC(c3ccccc3)=NO4)c(NC(=O)c3ccc(Cl)c([N+](=O)[O-])c3)c2)cc1 | -5 | i | . | . | 3 | 8 | -11 | 20
COc1ccc(C(CNC(=O)c2ccc3c(c2)C(=O)N(CCC(C)C)C3=O)N2CCOCC2)cc1 (stereo unspecified) | -1 | i | -10 | -8 | -3 | 0 | -10 | -94
C=CCn1c(SCC)nc(O)cc1=O | -16 | i | -11 | -3 | 7 | 6 | -15 | .
Cc1cc(=O)c2c(O)c(O)ccc2o1 | -2 | i | -4 | 6 | 5 | 8 | 2 | -45
CCCn1c2ccccc2c2cnn(CC(=O)NCCN(C)C)c(=O)c21 | 6 | i | -1 | 10 | 1 | 1 | -16 | 41
CCOC(=O)c1c(NC(=O)C(=O)N/N=C/c2ccccc2O)sc2c1CCCCC2 | 83* | i | 0 | 7 | -12 | -7 | -7 | .
Cc1noc(NS(=O)(=O)c2ccc(N/C=C\C(=O)c3ccc(F)cc3)cc2)c1C | . | i | 0 | 3 | 5 | 4 | . | 5
Cc1ccc(S(=O)(=O)N2CCCCC2)cc1NC(=O)Cn1ccc(C(F)(F)F)n1 | -14 | i | -5 | -3 | 2 | -5 | 6 | 21
CC(=O)c1ccc(OCC(O)CNCc2ccc3c(c2)OCO3)cc1 (stereo unspecified) | -8 | i | -5 | 12 | 0 | 1 | . | 2
Cc1cc(C)nc(SCc2nc3ccccc3n2C)n1 | -21 | i | -5 | 4 | -1 | 6 | -13 | -21
Fc1ccc(Nc2ncnc3sc4c(c23)CCC4)cc1 | 30 | i | -9 | -4 | -6 | -4 | -12 | .
Cc1ncoc1C(=O)N1CCCC(C(=O)c2ccc(-c3ccccc3)cc2)C1 (stereo unspecified) | -11 | i | -12 | -5 | 3 | -3 | . | 24
COC(=O)c1ccc(COc2ccccc2/C=N/Nc2cccc(C(=O)O)c2)cc1 | . | . | 13 | -6 | -1 | 1 | . | -80
CC(=O)Nc1ccc(NC(=O)C(C)OC(=O)c2ccc(-n3cnnn3)cc2)cc1 (stereo unspecified) | -7 | i | . | . | 3 | 3 | . | -144
Cc1ccc(CN2CCN(CCCc3ccccc3)CC2CCO)cc1 (stereo unspecified) | 24 | i | 1 | -3 | 1 | 0 | -8 | 4
COc1ccc(Cc2noc(CN3CCN(C4CCc5ccccc5C4)CC3)n2)cc1OC (stereo unspecified) | -1 | i | -2 | 3 | 5 | -7 | . | 11
CC(=O)c1c(OC(=O)c2ccc(C)cc2)c2ccccc2n1C | . | i | 4 | -11 | 8 | 1 | . | .
CCC1CCc2sc(C(=O)N3CCCN(C)CC3)cc2C1 (stereo unspecified) | 63 | i | 0 | -12 | 0 | 0 | -15 | 12
CC(NC(=O)CCC(=O)c1ccccc1)c1ccc(F)cc1 (stereo unspecified) | -10 | i | . | . | -5 | -2 | -13 | -22
COc1ccc(N=C2NC(=O)/C(=C\c3ccco3)S2)cc1 | . | i | 98 | 19 | 5 | 3 | -12 | -39 | eIF4H FP inh retest=-3;PABP FP inh retest=8
CCN1CCN(CCNC(=O)c2cc(Cl)c(NC(=O)C3=C(C)OCCS3)cc2OC)CC1 | -10 | i | 4 | -6 | 3 | 5 | 8 | 1
C/C(=N\NS(C)(=O)=O)c1ccc(C)cc1 | 10 | i | -17 | 4 | 3 | 10 | -15 | -88
COc1ccc(S(=O)(=O)N(C)c2ccc(C(=O)N3CCN(c4ccccc4)CC3)cc2)cc1OC | -18 | i | 5 | 1 | 4 | -13 | 2 | 22
COc1ccc(NC(=O)CSc2nnnn2C)cc1S(=O)(=O)N1CCCCC1 | . | . | . | . | 5 | -1 | 2 | -1
Cn1nccc1C(=O)Nc1nnc(C2CC2)s1 | -1 | i | 0 | 8 | 1 | 0 | -17 | -19
CSC1=C(C#N)C(c2ccc(Cl)cc2)C2=C(CC(C)(C)CC2=O)N1 (stereo unspecified) | 31 | i | -4 | -7 | -14 | -11 | 11 | ?
CC(=O)c1cccc(-c2ccc3c(c2)C(C)(Cc2ccc(S(C)(=O)=O)cc2)C(=O)N3)c1 (stereo unspecified) | . | . | . | . | 1 | 4 | 6 | 30
NS(=O)(=O)c1ccc(O)c(NC(=O)c2ccc([N+](=O)[O-])cc2)c1 | -2 | i | -6 | 2 | -2 | 3 | -4 | 6
Cc1ccc(SCc2c(C(=O)N/N=C/c3ccccc3)nnn2-c2nonc2N)cc1 | -7 | + | 1 | -10 | 1 | -1 | . | 6
Cc1ccc[n+](CC(=O)Nc2cc(C(F)(F)F)ccc2Cl)c1 | -15 | i | 1 | 9 | 1 | 0 | -23 | .
CCOC(=O)C1=C(N)Oc2cc(C)n(C)c(=O)c2C1c1ccncc1 (stereo unspecified) | -11 | i | -6 | -3 | 1 | -2 | -4 | -33
CN(CC(=O)NC1CC(C)(C)NC(C)(C)C1)S(=O)(=O)c1ccc(Br)cc1 | -12 | i | -7 | -8 | -1 | 4 | 5 | -5
Cc1c(C(=O)N2CCN(C3CCS(=O)(=O)C3)CC2)oc2ccc(Cl)cc12 (stereo unspecified) | . | . | . | . | 8 | 3 | -2 | -7
O=C(/C=C/c1c(F)cccc1Cl)Nc1nc2ccccc2[nH]1 | -17 | i | 7 | 8 | 6 | 3 | . | -67
Cc1cc(C)c(C)c(OCC(=O)N2CCCCCC2)c1 | -11 | i | -9 | 4 | 1 | 1 | 3 | -61
C=CCNC(=S)NNc1ncnc2sc3c(c12)CC(C)(C)OC3 | -8 | i | -8 | -4 | 4 | 2 | . | .
Cn1c(=O)oc2cc(S(=O)(=O)CCC(=O)N3CCN(c4ccccc4)CC3)ccc21 | -6 | i | -2 | -1 | -3 | -3 | -12 | 21
CSc1ccccc1C(=O)Nc1cc([N+](=O)[O-])ccc1C | -5 | i | -6 | 1 | -1 | 6 | -1 | 11
COc1ccc(O)c(/C=N/N2CCOCC2)c1 | 10 | i | -2 | -3 | -3 | -1 | -6 | 1
O=[N+]([O-])c1cc(Br)c2c(c1)CCN2 | . | . | . | . | 3 | 4 | -15 | -45
CCCCNC(=O)COC(=O)c1ccc(NS(=O)(=O)c2ccc3c(c2)OCCO3)cc1 | -7 | i | 1 | 5 | 5 | -4 | -16 | -32
C=CCn1c(=NC(=O)c2cc(-c3cccs3)nc3ccccc23)sc2cc(S(N)(=O)=O)ccc21 | 62 | i | 4 | -10 | -1 | -9 | -22 | -3
